E coli growth = E. coli growth inhibition; OD600 absorbance (test concentration not listed); AID 1053175; Escherichia coli growth, OD600, 23 h; hits give low values; actives 0.21% (n = 330,000);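 active means OD600 absorbance below the run mean of sample wells minus 3.6 SD, in any replicate, cut at about 0.56 in these data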;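 further: stock transfer was 300 nL into about 60 µL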
Ecoli rRNA inh = inhibitors of bacterial rRNA selective over humanized ribosomes; E. coli WT GFP vs humanized-ribosome RFP mutants, fluorescence, 24 h; hits give low values; DMSO median 0, no signal -100; GFP signal change (wild-type ribosome), % (concentration not given with the values); actives 1.6% (n = 350,000);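 active means significant combined selectivity score with lowered wild-type GFP, culture density cut under 30%, mutant RFP and density less affected; inactive means any of these conditions unmet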; further: one replicate is shown; some compounds called inactive have numbers as strong as hits
ALR inh = inhibitors of human sulfhydryl oxidase ALR; AID 485317; actives 3.8% (n = 290,000); P55789; purified ALR, DTT oxidation, H2O2 HRP-luminol luminescence; inhibition, % (concentration not given with the values);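 active means mean and each replicate at 75% or more; inconclusive means only one of the two met; inactive means neither met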;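 further: stock transfer was 7.5 nL into about 7.5 µL; 0% = neutral wells and 100% = wells with inactivated enzyme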
Target sequence (P55789 whole entry, looked up): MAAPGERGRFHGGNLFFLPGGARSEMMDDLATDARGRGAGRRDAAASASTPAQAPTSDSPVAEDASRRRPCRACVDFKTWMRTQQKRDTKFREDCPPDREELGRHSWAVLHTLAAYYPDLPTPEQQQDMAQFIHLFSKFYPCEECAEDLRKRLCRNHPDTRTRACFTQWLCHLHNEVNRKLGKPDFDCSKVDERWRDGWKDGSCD
MLL AF4-AF9 inh = inhibitors of human MLL-AF4/AF9 interaction | inhibition, % at 10 µM | AlphaScreen, biotin-AF4 peptide binding to FLAG-AF9 | actives 0.47% (n = 350,000) | P42568;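 active means every replicate reaching a set inhibition limit, whatever the replicate mean, cut at about 25% in these data; inconclusive means mean inhibition reaches that limit but some replicates miss it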;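 further: 0% = plate neutral control median and 100% = total signal loss; the record names both 10 and 1 µM as test concentration; the first replicate is given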
Target sequence (P42568 whole entry, looked up): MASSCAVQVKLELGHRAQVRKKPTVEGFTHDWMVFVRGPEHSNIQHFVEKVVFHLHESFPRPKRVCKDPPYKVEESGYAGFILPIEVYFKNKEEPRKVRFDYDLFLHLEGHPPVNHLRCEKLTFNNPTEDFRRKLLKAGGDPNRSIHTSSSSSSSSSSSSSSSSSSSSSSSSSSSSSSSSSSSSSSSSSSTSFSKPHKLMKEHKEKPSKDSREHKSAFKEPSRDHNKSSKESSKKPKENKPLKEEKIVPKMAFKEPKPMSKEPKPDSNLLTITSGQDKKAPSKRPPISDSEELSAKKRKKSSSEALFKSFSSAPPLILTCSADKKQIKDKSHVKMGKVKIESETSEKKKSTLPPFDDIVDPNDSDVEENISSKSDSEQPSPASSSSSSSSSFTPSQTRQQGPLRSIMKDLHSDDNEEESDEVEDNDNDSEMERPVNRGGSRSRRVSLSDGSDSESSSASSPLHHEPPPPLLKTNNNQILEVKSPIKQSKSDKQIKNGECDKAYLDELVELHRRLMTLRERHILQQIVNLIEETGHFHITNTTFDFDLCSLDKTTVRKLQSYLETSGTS
Vif TR-FRET = inhibitors of Vif binding to APOBEC3G peptide, primary screen, biochemical, TR-FRET, GST-Vif 1-94, biotin-A3G peptide, dose response retest (AID 1117319) | TR-FRET GST-Vif / biotin-A3G peptide binding; higher % means a stronger effect; test concentration not given here; strong numbers were not always called active | one-dose inhibition, %; IC50 in µM for titrated hits | actives 0.57% (n = 260,000);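 active means above the screen mean plus three standard deviations and confirmed in dose response; inconclusive means results disagree or hit not tested in dose response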;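 further: Vif residues 1-94 fused to GST binding biotinylated APOBEC3G peptide 110-148; 0% = full assay without inhibitor and 100% = GST in place of GST-Vif; retest series ran down from 100 µM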
Ecoli rRNA inh OD600 = second read-out of Ecoli rRNA inh, no call of its own (marks repeat the call); OD600 change, %; measured here: OD600 growth;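 optical density of the mix in the first replicate; 0 = DMSO median and -100 = no signal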
Ecoli rRNA inh RFP = further read-out of Ecoli rRNA inh, marked with its call; RFP signal change, %; measured here: RFP humanized mutant strains;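 first replicate; 0 = DMSO median and -100 = no signal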
Starred values were filed as active, the others as inactive; u = inconclusive; x = not tested or not shown. This is a subset; count on the stated rates, not on these rows.

SMILES	E coli growth	Ecoli rRNA inh	ALR inh	MLL AF4-AF9 inh	Vif TR-FRET	others
O=C(CN1CCOCC1)N1CC(=O)N2[C@H](CO)[C@@H](c3ccc(-c4cccc(F)c4)cc3)[C@@H]2C1	x	0	x	-0.8	x	Ecoli rRNA inh OD600=-5;Ecoli rRNA inh RFP=-0.3
CC(C)NC(=O)Nc1ccc2c(c1)CC(=O)N([C@@H](C)CO)C[C@@H](C)[C@H](CN(C)S(=O)(=O)c1ccccc1)O2	x	5	x	0.4	x	Ecoli rRNA inh OD600=9;Ecoli rRNA inh RFP=-1.2
CCCC(=O)N1CC2(CCN(C)CC2)c2c(n(C)c3cc(OC)ccc23)[C@@H]1CO	x	5	x	2.4	x	Ecoli rRNA inh OD600=11;Ecoli rRNA inh RFP=-1.4
CC(C)CC#Cc1ccc([C@@H]2[C@@H](CO)N3CCCCN(C(=O)Nc4ccccc4)C[C@H]23)cc1	x	-58	x	-3.4	x	Ecoli rRNA inh OD600=-76;Ecoli rRNA inh RFP=-14
COc1ccc(C2c3c(oc4ccccc4c3=O)C(=O)N2Cc2ccncc2)cc1OC (stereo unspecified)	0.73	x	-9	x	x
Cc1nc2c(C(=O)NCc3cccs3)cnn2c(C)c1Cc1ccccc1	0.63	x	2	x	x
COc1ccc(OC)c(NC(=O)c2ccc3nc(-c4ccccc4)c(-c4ccccc4)nc3c2)c1	0.72	x	-5	x	x
CCc1nc(SCc2nnc(-c3ccc(C)cc3)o2)c2c(C)c(C)sc2n1	0.75	x	19	x	x
Cc1ccc(Nc2nc(N3CCN(C)CC3)nc(N)c2[N+](=O)[O-])cc1C	0.68	x	-1	x	x
Cc1noc(C)c1CSc1nnc2cc(C)c3ccccc3n12	0.7	x	-7	x	x
NNC(=O)c1ccccc1CO	0.78	x	79*	x	x
CC(=O)c1ccc(O[C@@H]2O[C@H](CO)[C@@H](O)[C@H](O)[C@H]2O)cc1	0.74	x	-2	x	x
CN=C1S/C(=C\c2cccn2-c2cccc(Br)c2)C(=O)N1C	0.78	x	-6	x	x
CN1CCN(C(c2cc3cc4c(cc3[nH]c2=O)OCCO4)c2nnnn2C2CCCC2)CC1 (stereo unspecified)	0.68	x	-6	x	x
N=C(N)N1CCN(Cc2ccccc2)CC1	0.7	x	-14	x	x
O=C(CNCC1CCCCC1)Nc1ccc(N2CCCCC2)cc1	0.69	x	98*	x	x
Cc1ccc2nc(SCc3cn4c(C)cc(C)nc4n3)[nH]c2c1	0.7	x	1	x	x
Cc1csc2ncc(C(=O)NCc3ccc4c(c3)OCO4)c(=O)n12	0.73	x	-6	x	x
CCOC(=O)c1cnn(-c2ncnc3c2cnn3Cc2ccccc2)c1N	0.76	x	6	x	x
CCn1c2ccccc2n2c(=O)c(=O)n(CC(=O)N3CCN(c4ccccc4OC)CC3)nc12	0.67	x	-1	x	x
COCCn1c(SCC(=O)Nc2ccc(OC)cc2)nc2c(oc3ccccc32)c1=O	0.72	x	-33	x	x
Cc1cc(Cl)ccc1OCC(O)CN1C(C)CCCC1C (stereo unspecified)	0.65	x	-3	x	x
Cc1nn2c(=O)nc3sc4c(c3c2[nH]c1=O)CCCC4	0.75	x	-2	x	x
CC(OC(=O)c1ccc2ncsc2c1)C(=O)NCc1ccccc1 (stereo unspecified)	0.74	x	-5	x	x
Cc1cc(=O)n(C)c(=O)n1CCCCCCOc1ccc([N+](=O)[O-])cc1	0.67	x	-2	x	x
O=C1N=C(N2CCCC2)S/C1=C\c1cn[nH]c1-c1ccccc1	0.69	x	-4	x	x
Nc1nc2c(ncn2CCC(CO)CO)c(=O)[nH]1	0.67	x	-2	x	x
CCCOC(=O)c1ccc(Cl)c(NC(=O)c2cccnc2)c1	0.71	x	1	x	x
O=[N+]([O-])c1ccc(C2Oc3ccccc3C3CC(c4ccccc4)=NN32)s1 (stereo unspecified)	0.62	x	-18	x	x
CC1CCCCC1NC(=O)/C(C#N)=C/c1ccc2c(c1)OCCO2 (stereo unspecified)	0.68	x	10	x	x
COc1cc(C(=O)NCCN2C(=O)S/C(=C\c3ccc(F)cc3)C2=O)ccc1OCC(=O)N1CCOCC1	0.69	x	-24	x	x
O=C(Nc1ccccc1-c1nnn(CC(=O)N2CCCc3ccccc32)n1)c1cccc(Cl)c1	0.74	x	-6	x	x
CCOC(=O)C1=C(C)NC(C)=C(C(=O)OCC)C1c1nc2ccccc2[nH]1	0.81	x	6	x	x
COc1ccc(-n2nc(C(=O)Nc3nc4ccc(OC)cc4s3)c3ccccc3c2=O)c(OC)c1	0.69	x	-3	x	x
CC(C)=CCc1c(-c2ccc(O)cc2O)oc2cc3c(c(O)c2c1=O)C=CC(C)(C)O3	0.69	x	-5	x	x
C=C[C@H]1[C@H](OC2OC(CO)C(O)C(O)C2O)OC=C(C(=O)OC)[C@H]1C[C@H]1CC(=O)C[C@H](CC(=O)CCc2ccc(O)cc2)O1 (stereo partly specified)	0.78	x	55	x	x
CCCc1nnc(NC(=O)c2c(O)c3cccc4c3n(c2=O)CCC4)s1	0.75	x	-4	x	x
CC(C)=CCc1c2c(c(O)c3c(=O)c4c(oc13)-c1cc(O)c(O)cc1OC4C=C(C)C)C=CC(C)(C)O2 (stereo unspecified)	0.8	x	-9	x	x
Cc1nn(Cc2ccccc2)c(C)c1NC(=O)CSc1nc2sc3c(c2c(=O)n1C)CCC3	0.74	x	-4	x	x
CCOC(=O)OC(C)OC1=C(C(=O)Nc2ccccn2)N(C)S(=O)(=O)c2ccccc21 (stereo unspecified)	0.66	x	-8	x	x
O=c1[nH]c(/C=C/c2ccc(Br)cc2)nc2c1cnn2-c1ccccc1	0.73	x	1	x	x
CC(=O)c1ccc(COC(=O)c2ccccc2NC(=O)C(C)C)cc1	0.66	x	-5	x	x
CC1CN(c2nc3ccccc3nc2C(C#N)C(=O)NC2CCCCC2)CC(C)O1 (stereo unspecified)	0.74	x	9	x	x
O=C1c2ccc(-c3nc4ccccc4o3)cc2C(=O)N1Cc1cccnc1	0.66	x	8	x	x
CCCCn1nnc(NC(=O)c2ccc(-c3cccc([N+](=O)[O-])c3)o2)n1	0.65	x	-5	x	x
Cc1c(NC(=O)CC2NC(=O)NC2=O)c(=O)n(-c2ccccc2)n1C (stereo unspecified)	0.69	x	-3	x	x
N#C/C(=C\c1cccc2ccccc12)c1nn(-c2ccccc2)c(N)c1C#N	0.7	x	0	x	x
CC(C)=CCc1c(-c2ccc(O)cc2O)oc2c3c(cc(O)c2c1=O)OC(C)(C)C=C3	0.7	x	-3	x	x
Cc1c(Cl)cn2c(=O)cc(CN(C)Cc3nc4ccccc4c(=O)[nH]3)nc2c1Cl	0.66	x	1	x	x
O=C(NCc1cccs1)C1CCCN1C(=O)Nc1ccc(Cl)cc1 (stereo unspecified)	0.71	x	-12	x	x
Cn1c(SCC(=O)Nc2ccc(N3CCOCC3)c(Cl)c2)nnc1-c1ccccc1	0.64	x	42	x	x
Cc1cccc2c1Sc1ccc(Cl)cc1CC2N1CCNCC1 (stereo unspecified)	0.39*	x	-8	x	x
COc1ccc2nc(Nc3nc(CSc4nc5ccccc5s4)cc(=O)[nH]3)nc(C)c2c1	0.76	x	2	x	x
Cn1c(=O)c2c(-c3ccccc3)n3c4ccccc4ncc3c2n(C)c1=O	0.67	x	37	x	x
COc1ccc(-c2nn(C)c(=O)c3ccccc23)cc1CNC(=O)CN1CCOCC1	0.75	x	-10	x	x
Cn1nc(CC(=O)Nc2cccnc2N2CCOCC2)c2ccccc2c1=O	0.74	x	-71	x	x
COc1cc(C)nc(N2CCCC(C(=O)NC3CCC(C)CC3)C2)n1 (stereo unspecified)	0.7	x	-8	x	x
Cc1cccc(-n2c(-c3cccc([N+](=O)[O-])c3)nc3nc4ccccc4nc32)c1	0.71	x	-16	x	x
COc1ccc(N2CCC(CNC(=S)Nc3cccc(OC)c3)C2)cc1 (stereo unspecified)	0.7	x	15	x	x
Nc1ccc(Sc2ccccc2CC(=O)O)cc1	x	x	99*	x	16%
Next part.
SMILES	E coli growth	Ecoli rRNA inh	ALR inh	MLL AF4-AF9 inh	Vif TR-FRET	others
O=[N+]([O-])c1ccc(S(=O)(=O)Nc2ccc(-c3csc(-c4ccccc4)n3)cc2)cc1	x	x	-7	x	4%
N#C/C(=C\c1cc(Cl)c(OCc2ccc(Cl)cc2)c(Cl)c1)C(N)=O	x	x	2	x	-12%
Cc1sc(/C=C2\C(=O)ON=C2c2ccccc2)cc1Br	x	x	22	x	0%
O=c1[nH][nH]c(=S)n1C1CCCCC1	x	x	22	x	-9%
O=C(N/N=C1\CCCc2c1[nH]c1ccc([N+](=O)[O-])cc21)c1ccncc1	x	x	-8	x	26%
c1ccc(-c2ccc(-c3ccccn3)nn2)nc1	x	x	-25	x	30%
CCCCCCCC#Cc1ccccc1/C=N/S(=O)c1ccc(C)cc1 (stereo unspecified)	x	x	15	x	-12%
C/C(=C\c1ccco1)C1Nc2cccc3cccc(c23)N1	x	x	-2	x	u
COc1cc(OC)c(C2N(C)c3ccccc3N2C)cc1OC	x	x	-15	x	0%
CCc1nccn1C(=O)c1cnn2c(C(F)F)cc(-c3ccccc3)nc12	x	x	4	x	u
CCN(CC)C(=O)[C@]1(c2ccccc2)C[C@@H]1CN	x	x	-2	x	6%
COc1ccc2cc1Oc1ccc(cc1)C[C@H]1c3cc(c(OC)cc3CCN1C)Oc1c(O)c(OC)cc3c1[C@H](C2)N(C)CC3	x	x	63	x	4%
Cc1cccc(OCC(=O)Nc2ccc(C(=O)NCc3cccnc3)cc2)c1	x	x	29	x	0%
CCCCNC(=O)c1c(N)n(/N=C/c2ccccn2)c2nc3ccccc3nc12	x	x	0	x	4%
O=C(O)C1C2C=CC(C2)C1C(=O)NCc1ccccn1 (stereo unspecified)	x	x	-16	x	6%
CC(=O)Oc1ccccc1C(=O)Nc1ncc([N+](=O)[O-])s1	x	x	5	x	5%
CCC(=O)N1Cc2ccccc2-c2ccccc2C1=O	x	x	-2	x	0%
Cc1nc(NC(=O)c2ccccc2)sc1-c1csc(Nc2ccc(F)cc2)n1	x	x	36	x	u
O=C(CSc1nc(C2CC2)nc2ccccc12)N1CCc2ccccc2C1	x	x	-2	x	-9%
O/N=C/c1cc(Cl)ccc1OCc1cccc2ccccc12	x	x	-9	x	-3%
NC[C@@]12CCCC1C1CCC2C1 (stereo partly specified)	x	x	-1	x	u
COc1ccc(N2CCN(CCCNS(=O)(=O)c3c(C)noc3/C=C/N(C)C)CC2)cc1	x	x	18	x	18%
Cn1c2ccccc2c(=O)n2c(=O)c3ccccc3cc12	x	x	54	x	u

Of the compounds above, these contain an NH in an aromatic ring:
SMILES	E coli growth	Ecoli rRNA inh	ALR inh	MLL AF4-AF9 inh	Vif TR-FRET	others
CN1CCN(C(c2cc3cc4c(cc3[nH]c2=O)OCCO4)c2nnnn2C2CCCC2)CC1 (stereo unspecified)	0.68	x	-6	x	x
Cc1ccc2nc(SCc3cn4c(C)cc(C)nc4n3)[nH]c2c1	0.7	x	1	x	x
Cc1nn2c(=O)nc3sc4c(c3c2[nH]c1=O)CCCC4	0.75	x	-2	x	x
O=C1N=C(N2CCCC2)S/C1=C\c1cn[nH]c1-c1ccccc1	0.69	x	-4	x	x
Nc1nc2c(ncn2CCC(CO)CO)c(=O)[nH]1	0.67	x	-2	x	x
CCOC(=O)C1=C(C)NC(C)=C(C(=O)OCC)C1c1nc2ccccc2[nH]1	0.81	x	6	x	x
O=c1[nH]c(/C=C/c2ccc(Br)cc2)nc2c1cnn2-c1ccccc1	0.73	x	1	x	x
Cc1c(Cl)cn2c(=O)cc(CN(C)Cc3nc4ccccc4c(=O)[nH]3)nc2c1Cl	0.66	x	1	x	x
COc1ccc2nc(Nc3nc(CSc4nc5ccccc5s4)cc(=O)[nH]3)nc(C)c2c1	0.76	x	2	x	x
O=c1[nH][nH]c(=S)n1C1CCCCC1	x	x	22	x	-9%
O=C(N/N=C1\CCCc2c1[nH]c1ccc([N+](=O)[O-])cc21)c1ccncc1	x	x	-8	x	26%
